HNF4A DNA FP = change in binding of human HNF4A to DNA, primary screen, biochemical, fluorescence polarization, FITC-DNA; hit rate 0.3% among 360,000; 1 h; activity change, % at 10 µM; in the data active means activity change above about 30%, passing the limit was not always enough;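 further: controls were the assay level and a saturating level of protein; the project sought stronger binding though the title names inhibitors; some compounds called inactive have numbers as strong as hits; positive values seem to mean higher polarization but the record does not say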
Target sequence (P41235 whole entry, looked up): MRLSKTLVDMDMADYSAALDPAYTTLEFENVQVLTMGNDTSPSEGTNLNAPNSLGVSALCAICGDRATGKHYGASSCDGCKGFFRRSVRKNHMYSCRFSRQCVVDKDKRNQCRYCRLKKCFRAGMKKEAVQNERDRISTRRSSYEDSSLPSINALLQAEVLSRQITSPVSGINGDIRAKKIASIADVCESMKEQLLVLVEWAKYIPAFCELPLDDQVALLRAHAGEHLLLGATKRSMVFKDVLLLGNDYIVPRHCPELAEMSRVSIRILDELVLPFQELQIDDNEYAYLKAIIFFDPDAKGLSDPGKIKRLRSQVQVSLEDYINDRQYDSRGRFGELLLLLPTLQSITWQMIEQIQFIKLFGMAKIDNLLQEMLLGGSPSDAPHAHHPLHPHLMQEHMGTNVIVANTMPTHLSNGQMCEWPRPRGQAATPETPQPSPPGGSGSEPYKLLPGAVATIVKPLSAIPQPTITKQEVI
ALR H2O2 inh = inhibitors of human ALR sulfhydryl oxidase, primary screen, biochemical, H2O2 detection, HRP-luminol luminescence, single point. inhibition, % (no concentration beside the values). purified ALR, DTT oxidation. hit rate 3.8% among 290,000;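 active means mean and each replicate at 75% or more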;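 further: stock transfer was 7.5 nL into about 7.5 µL; 0% = neutral wells and 100% = wells with inactivated enzyme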
UCH37 DUB inh = inhibitors of human UCH37 deubiquitinase, primary screen, biochemical, Ub-AMC cleavage, fluorescence; purified proteasome/UCH37; inhibition, % (test concentration not listed); hit rate 0.33% among 330,000; Ubiquitin carboxyl-terminal hydrolase isozyme L5 (Homo sapiens), Q9Y5K5;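 active means mean of two replicates above 20%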;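 further: 0% = compound-free wells with enzyme and 100% = wells lacking proteasome; stock transfer was 100 nL into about 20 µL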
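Test system – human UCH37 enzyme supplied as purified proteasome complex · Incubation – 30 min preincubation with enzyme, 25 min cleavage at room temperature · Detection – AMC fluorescence from Ub-AMC cleavage, excitation 355 nm, emission 460 nm · Benchmarks – no-proteasome wells (full inhibition) and compound-free wells (no inhibition)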
Ecoli rRNA inh = reduced GFP signal of wild-type E. coli, primary screen, bacterial rRNA inhibitor project, GFP/RFP fluorescence, OD600, single point; GFP signal change (wild-type ribosome), % (no concentration beside the values); E. coli WT GFP vs humanized-ribosome RFP mutants, 24 h; hits give low values; DMSO median 0, no signal -100; AID 720706, 2013; hit rate 1.6% among 350,000;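 active means significant combined selectivity score with lowered wild-type GFP, culture density cut under 30%, mutant RFP and density less affected; inactive means any of these conditions unmet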; further: one replicate is shown; some compounds called inactive have numbers as strong as hits
FGF22 binding = binders of human FGF22 protein, primary screen, FGF22 synaptogenesis inhibitor project, biophysical, thermal shift, single point; Fibroblast growth factor 22 (Homo sapiens), Q9HCT0; recombinant FGF22 thermal shift, SYPRO orange fluorescence; percent of sucrose octasulfate shift, DMSO zero; calls only at 9.99 µM; hit rate 1.5% among 340,000; AID 651658, 2012;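 active means melting point raised past a set limit in the mean and every replicate; three in four hits are not shown here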
Target sequence (Q9HCT0 whole entry, looked up): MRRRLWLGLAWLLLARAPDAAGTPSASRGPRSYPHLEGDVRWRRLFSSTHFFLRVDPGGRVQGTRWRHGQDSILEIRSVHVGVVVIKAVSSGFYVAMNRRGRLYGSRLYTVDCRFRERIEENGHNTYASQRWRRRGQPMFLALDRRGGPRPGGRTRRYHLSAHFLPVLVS
Beta2AR agonist = beta2AR agonists driving receptor internalization, primary screen, cell-based, FAP fluorogen, flow cytometry; response, % (no concentration beside the values); Beta-2 adrenergic receptor (Homo sapiens), P07550; hit rate 0.43% among 340,000; AID 504454, 2011; Am2.2-beta2AR cells; reference of the scale not given here;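 active means response above a set limit, near 3 SD of response in nonfluorescent compounds, cut at about 42% in these data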;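 further: stock transfer was 100 nL into about 11 µL; a reference agonist was the positive control; negative values mostly stem from fluorescent compounds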
Target sequence (P07550 whole entry, looked up): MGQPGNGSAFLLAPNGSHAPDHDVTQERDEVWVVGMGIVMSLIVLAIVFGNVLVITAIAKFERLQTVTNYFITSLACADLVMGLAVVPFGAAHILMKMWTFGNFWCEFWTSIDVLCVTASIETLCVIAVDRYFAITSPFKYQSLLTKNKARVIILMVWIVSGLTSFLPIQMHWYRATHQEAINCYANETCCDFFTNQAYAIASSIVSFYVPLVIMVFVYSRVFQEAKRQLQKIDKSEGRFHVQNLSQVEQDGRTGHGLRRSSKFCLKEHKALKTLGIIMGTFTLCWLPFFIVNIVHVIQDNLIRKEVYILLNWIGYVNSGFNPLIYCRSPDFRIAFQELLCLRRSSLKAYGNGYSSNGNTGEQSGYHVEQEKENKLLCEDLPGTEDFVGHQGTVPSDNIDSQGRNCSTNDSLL
Ecoli growth = E. coli growth inhibition, primary screen, OD600. AID 1053175, 2014. OD600 absorbance (test concentration not listed). hit rate 0.21% among 330,000. Escherichia coli growth, 23 h; hits give low values;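 active means OD600 absorbance below the run mean of sample wells minus 3.6 SD, in any replicate, cut at about 0.56 in these data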;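 further: stock transfer was 300 nL into about 60 µL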
Ecoli rRNA inh OD600 = second read-out of Ecoli rRNA inh, no call of its own (marks repeat the call); OD600 change, %; measured here: OD600 growth;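 optical density of the mix in the first replicate; 0 = DMSO median and -100 = no signal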
Ecoli rRNA inh RFP = further read-out of Ecoli rRNA inh, marked with its call; RFP signal change, %; measured here: RFP humanized mutant strains;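 first replicate; 0 = DMSO median and -100 = no signal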
* marks the source's active call; other numbers are inactive results; i = inactive; . = not tested or not shown. A portion of the library; rates above refer to the full screens.

SMILES	HNF4A DNA FP	ALR H2O2 inh	UCH37 DUB inh	Ecoli rRNA inh	Ecoli rRNA inh OD600	Ecoli rRNA inh RFP	FGF22 binding	Beta2AR agonist	Ecoli growth
CCN(c1ccccc1)S(=O)(=O)c1cc(C(=O)OC(C)C(=O)Nc2ccc3c(c2)OCCO3)ccc1C (stereo unspecified)	-11	.	2.1	7	-4	9.5	i	-4	0.73
Nc1c(C(=O)NCc2ccco2)nnn1CC(=O)Nc1ccc2c(c1)OCO2	-3.5	-1	4.9	2	11	11	i	-6	0.67
N#Cc1c(-c2ccccc2Cl)c2c([nH]c1=O)-c1ccccc1OC2	-4.1	1	.	-24*	-15*	-0.8*	i	-2	.
COCCN(C(=O)COC(=O)CCSc1ccc(F)cc1)c1c(N)n(Cc2ccccc2)c(=O)[nH]c1=O	0.8	-1	-0.1	4	6	0.6	i	-10	0.67
COCCCn1c(SCC(=O)NC(C)(C)C)nnc1-c1cccs1	2.5	-4	-1.4	6	2	-4.2	i	-9	0.69
CCc1cccc(C)c1NC(=O)COC(=O)C1CC(=O)N(CCc2ccc(OC)c(OC)c2)C1 (stereo unspecified)	-2.7	.	2.2	0	-3	1.1	i	0	0.68
CCOC(=O)c1oc2ccccc2c1NC(=O)c1ccc(S(=O)(=O)N2CCCC2)cc1	-0.2	2	-30	11	-1	-5.4	i	11	0.73
Cc1ccccc1COn1nnc2ccc(S(=O)(=O)N3CCOCC3)cc21	2.3	-2	1.2	-4	-8	-0.2	.	-5	0.65
COc1ccc(CN(C)CC(=O)Nc2ccc(SC(F)F)cc2)cc1OC	-0.7	-16	3.0	-32	-26	-4.8	.	9	0.65
CCOC(=O)c1cnc(SC2CCc3ccccc3C2=O)nc1N (stereo unspecified)	-4.7	-7	2.8	.	.	.	.	0	0.67
Cn1c(CNS(=O)(=O)c2ccc(F)cc2)n[nH]c1=S	0.4	31	0.9	.	.	.	.	13	0.64
COc1ccc(CNC(=O)C(=O)NCC2OCCN2S(=O)(=O)c2ccc(OC)c(OC)c2)cc1 (stereo unspecified)	0.2	1	2.6	5	1	1.2	i	-1	0.75
O=C1CCN(CCc2ccccc2)CCN1[C@H](CO)c1ccccc1	5.8	26	4.2	17	7	5.4	i	-1	.
CS(=O)(=O)Nc1ccc(C2=NN(C(=O)c3ccco3)C(c3ccco3)C2)cc1 (stereo unspecified)	-1.9	-7	3.4	-1	-3	-5.2	i	-20	0.74
O=C(NNC(=O)c1cc2cc(Br)ccc2oc1=O)c1ccc(O)cc1	3.5	11	1.1	3	3	-0.5	i	-15	0.71
COc1ccccc1CNC(=O)C1CC(c2ccccc2C(F)(F)F)=NO1 (stereo unspecified)	2.1	-2	2.3	.	.	.	.	4	0.64
C=CCn1c(SC(C)C(=O)NCCC2=CCCCC2)nc2ccccc2c1=O (stereo unspecified)	-3.0	-20	3.1	.	.	.	.	-1	0.73
Cc1noc(C)c1C(=O)NC(C)C1CCCO1 (stereo unspecified)	1.6	-2	-0.4	.	.	.	.	-5	0.73
CCOc1ccc(C(=O)c2cccs2)cc1	0.8	7	2.5	.	.	.	.	-4	0.72
O=C(COC(=O)c1cc(S(=O)(=O)N2CCCC2)ccc1O)Nc1ccc(SC(F)F)cc1	-0.6	.	-1.9	-22	-25	-8.4	i	15	0.65
Cc1cccc(/N=C/c2ccccn2)n1	-0.4	-3	.	24	-4	-0.6	i	1	.
CCOC(=O)c1cnn(CCOC(=O)c2cccc(F)c2)c1NC(=O)c1cccc(F)c1	6.1	0	1.8	9	2	7.5	i	-3	.
CCOC(=O)N1CCN(C(=O)c2n[nH]c(=O)c3ccccc23)CC1	-4.3	0	-0.7	.	.	.	.	-4	0.72
Cc1ccc([C@H]2C[C@H](O)[C@@H](n3cc(-c4ccc(F)cc4)nn3)CN2Cc2cccs2)cc1	1.9	.	.	19	18	0.1	i	.	.
COc1ccc(S(=O)(=O)c2c(O)cc(C)c(NS(=O)(=O)c3ccccc3)c2C)cc1	-1.9	5	-1.1	-55	-71	-19	i	-1	0.71
Clc1cccc(Cl)c1CSc1nnc(/C=C/c2ccccc2)o1	-0.3	-18	0.3	.	.	.	.	0	0.72
COc1ccc(N(CC(=O)NCCC2=CCCCC2)S(=O)(=O)c2ccccc2)cc1	4.2	-4	6.3	9	7	-0.3	i	11	0.71
COc1cc(/C=C/C(=O)O)cc(S(=O)(=O)Nc2ccc3cn[nH]c3c2)c1OC	-0.3	-6	6.2	14	19	-0.3	i	2	0.67
COc1ccc(-c2nc(CS(=O)CC(=O)N3CCCC3)c(C)o2)cc1 (stereo unspecified)	-0.7	99*	3.6	5	4	-2.1	i	-4	0.79
COC(=O)c1ccc(COC(=O)c2cccnc2Cl)cc1	-5.1	3	0.0	-2	-6	0.5	i	-1	0.7
COc1ccccc1C(=O)Nc1ccccc1N1CCCCC1	2.6	24	0.7	-34	-41	-9.1	i	5	0.68
COc1cc2c(cc1OC)C(C1C(=O)CCCC1=O)N(C(=O)CCl)CC2 (stereo unspecified)	3.5	-3	-25	15	11	0.4	i	-1	0.69
Cc1cccc(Nc2nc(N)nc(CN3CCN(c4ccccc4)CC3)n2)c1	-0.7	80*	1.3	.	.	.	.	-4	0.65
O=C(CCNS(=O)(=O)c1ccc(F)c(Cl)c1)NCc1ccccc1F	7.4	.	1.5	1	2	-4.7	i	-5	0.7
Cc1ccc(N(CCC#N)C(=O)COC(=O)c2ccccn2)cc1	-0.2	-16	0.9	1	-1	0.0	i	-11	0.69
COc1ccc(NC(=O)CSc2sc3c(O)cc(=O)[nH]c3c2C#N)c(OC)c1	-34	33	11	8	4	1.1	i	6	0.71
O=C(CP(=O)(O)CC(=O)c1ccccc1)c1ccccc1	2.7	-6	5.0	6	6	3.8	i	16	0.7
COc1cc(OC)cc(-c2c(C#Cc3ccsc3)c3cc(-c4cc(F)cc(F)c4)ccc3n2C)c1	3.7	1	-44	6	4	-1.1	i	5	0.74
COc1ccc(OC)c(NC(=O)c2cnn(-c3ccccc3Cl)c2NC(=O)c2ccco2)c1	2.1	.	3.8	.	.	.	.	5	0.73
CC(C#N)OC(=O)c1cccnc1SCC(=O)Nc1ccc2c(c1)OCO2 (stereo unspecified)	3.3	-10	0.7	-10	-23	-0.1	i	-2	0.64

In the list so far, 5 contain two or more sulfur atoms.
SMILES	HNF4A DNA FP	ALR H2O2 inh	UCH37 DUB inh	Ecoli rRNA inh	Ecoli rRNA inh OD600	Ecoli rRNA inh RFP	FGF22 binding	Beta2AR agonist	Ecoli growth
COCCCn1c(SCC(=O)NC(C)(C)C)nnc1-c1cccs1	2.5	-4	-1.4	6	2	-4.2	i	-9	0.69
Cn1c(CNS(=O)(=O)c2ccc(F)cc2)n[nH]c1=S	0.4	31	0.9	.	.	.	.	13	0.64
O=C(COC(=O)c1cc(S(=O)(=O)N2CCCC2)ccc1O)Nc1ccc(SC(F)F)cc1	-0.6	.	-1.9	-22	-25	-8.4	i	15	0.65
COc1ccc(S(=O)(=O)c2c(O)cc(C)c(NS(=O)(=O)c3ccccc3)c2C)cc1	-1.9	5	-1.1	-55	-71	-19	i	-1	0.71
COc1ccc(NC(=O)CSc2sc3c(O)cc(=O)[nH]c3c2C#N)c(OC)c1	-34	33	11	8	4	1.1	i	6	0.71

Later entries:
SMILES	HNF4A DNA FP	ALR H2O2 inh	UCH37 DUB inh	Ecoli rRNA inh	Ecoli rRNA inh OD600	Ecoli rRNA inh RFP	FGF22 binding	Beta2AR agonist	Ecoli growth
Cc1ccccc1OCCC(=O)OCC(=O)Nc1ccc2[nH]c(=O)[nH]c2c1	-1.0	-4	4.4	1	11	-4.1	i	-3	0.72
Cc1ccccc1C(=O)Nc1cccc(NC(=O)c2cccnc2)c1	2.2	.	2.3	1	3	-3.5	i	1	0.63
O=C(NCC(=O)N1CC=C(c2ccccc2)CC1)c1ccc(F)cc1	1.3	-4	1.9	-6	-7	2.8	i	-6	0.69
CCC(CC)c1nnc(NC(=O)C2CC(=O)N(CCc3ccc(OC)c(OC)c3)C2)s1 (stereo unspecified)	-4.6	-23	1.6	1	3	0.1	i	-1	0.72
COc1ccc2c(c1)CC=C1C2CCC2(C)C(=O)C(=NO)CC12 (stereo unspecified)	3.3	.	1.6	-63	-78	-17	i	1	0.67
CN(C)S(=O)(=O)c1cccc(C(=O)NCCc2ccccc2)c1	4.5	-8	1.7	.	.	.	.	1	0.76
COc1ccc(/C=N/Nc2ncccc2[N+](=O)[O-])c(OC)c1	-0.9	5	.	17	11	-2.8	i	-21	.
COc1ccc(OC)c(NC(=O)C(C)Oc2ccc(Br)cc2)c1 (stereo unspecified)	2.8	1	0.8	-31	-44	-4.1	i	5	0.67
Cc1csc(N2CCCC2c2nc3cc(Cl)c(N4CCCCC4)cc3n2CCCO)n1 (stereo unspecified)	3.1	5	2.4	-7	7	6.1	i	-5	0.72
CCn1c(NC(=S)Nc2ccccc2)nc2ccccc21	2.2	2	3.6	.	.	.	.	6	0.75
Cn1c(=O)c2c(nc(CN3CCC(C(N)=O)CC3)n2Cc2ccccc2Cl)n(C)c1=O	-0.6	-11	0.7	.	.	.	.	-7	0.67
C[C@@H]1CC[C@@]2(OC1)O[C@H]1C[C@H]3[C@@H]4CC=C5C[C@@H](O)[C@H](O)C[C@]5(C)C4CC[C@]3(C)[C@H]1[C@@H]2C (stereo partly specified)	3.9	-21	2.4	1	5	-0.6	i	3	0.67
Nc1c(C(=O)CSc2nnnn2-c2ccccc2)c(=O)[nH]c(=O)n1C1CC1	2.0	.	0.1	11	8	4.2	i	3	0.7
O=C(NCc1ccc(F)cc1)c1cccnc1C(=O)O	-0.9	.	1.4	9	17	-1.1	i	-1	0.68
Cc1cccc(C(=O)NC(=S)NNC(=O)Cc2ccccc2)c1	1.3	.	-0.9	-48	-55	-19	i	3	0.66
COC(CN(C(=O)CCl)C(C(=O)NC1CCCCC1)c1ccccc1C)OC (stereo unspecified)	0.2	77*	-17	8	-4	0.5	i	6	0.68
Cc1ccc2cc(CN(CC3CCCO3)C(=O)Nc3ccccc3F)c3nnnn3c2c1 (stereo unspecified)	5.1	-1	-1.9	-8	-9	-4.6	i	-10	0.72
CCOC(=O)c1cnc(-c2ccc(C(F)(F)F)cn2)[nH]c1=O	-0.3	-4	3.7	-9	-7	-3.8	i	2	0.65
CN(C(=O)CN(C)S(=O)(=O)c1ccc(F)cc1)c1c(N)n(Cc2ccccc2)c(=O)[nH]c1=O	-13	-6	0.2	5	0	1.7	.	6	0.57
CCCn1c(=O)c2ccccc2n2c(SCc3nc4ccccc4s3)nnc12	12	22	0.5	.	.	.	.	-17	0.66
COc1ccccc1CNc1nc(C)c(C(=O)N(C)C)s1	1.6	.	2.1	3	4	-3.3	i	-3	0.69
Cc1ccccc1NS(=O)(=O)c1cc(OCC(N)=O)c(C)cc1Cl	-2.6	-8	0.9	-8	-10	-1.4	i	i	0.67
CC(=O)N1CCN(C(=O)c2ccc(S(=O)(=O)Nc3ccccc3F)cc2)CC1	1.5	-7	3.1	7	2	-1.6	i	-12	0.72

From PubChem BioAssay
